# Screens as filed in PubChem.
# BJeLR lethal = MLPCN primary cell-based screen for lethality selective to Ras in HRASV12 cells | BJeLR (HRASV12) viability, CellTiter-Glo ATP luminescence, 48 h; reference of the scale not given here | inhibition, % (concentration not given with the values) | actives 0.17% (n = 300,000) | AID 1554, 2009;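 active means replicate mean above 50%; inconclusive means above 50% but judged a plate artefact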;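 further: 50 nL library stock added to about 25 µL; numbers are from one replicate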
# Sa ugtP lethal = growth inhibition of ugtP-null S. aureus, primary screen, RN4220 ugtP deletion, OD600; 16 h; some inactives read as strong as hits; growth inhibition, % (no concentration beside the values); actives 0.54% (n = 330,000); AID 1259309, 2017;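 active means z-score under -3 and OD600 up to 0.15 on both plates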;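 further: plate controls were untreated wells for no effect and antibiotic for full effect; wells of about 80 µL received 100 nL stock; the first replicate is given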
# PrP UTR inh = inhibition of PrP 5' UTR reporter expression; cell-based PrP 5' UTR mRNA reporter, plate reader; inhibition, % (concentration not given with the values); actives 0.35% (n = 340,000); AID 488862, 2010;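 active means every replicate at 50% or more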;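 further: 0 = median of the neutral control wells; tested in H4 reporter cells; numbers are from one replicate; inactives centre near -14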
# Mtb hypoxia rep = PubChem AID 1159583 | fluorescence inhibition, % (no concentration beside the values) | actives 0.1% (n = 300,000) | M. tuberculosis hypoxia-regulated fluorescent reporter, fluorescence;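 active means 35 to 45% if threefold the growth effect, above 45% if 1.5-fold the growth effect; inactive means the rest, general growth blockers included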;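 further: wells of about 50 µL received 100 nL stock; 0% = vehicle wells and 100% = reference inhibitor wells; whole bacteria with a GFP reporter of the hypoxia response; strong numbers were not always called active; many hits fall short of the cut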
# Autofluor counter = counter-screen for toxin protease inhibitors: compound fluorescence; compound autofluorescence counterscreen, microsphere flow cytometry; active compounds read high; AID 624483; actives 3.1% (n = 360,000); fluorescence intensity (test concentration not listed);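 active means at least 3 SD above the mean of all compounds, about 16000 in these data; inconclusive means too few beads counted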;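 further: 100 nL of 1 mM stock went into each well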
# RN4220 kill = growth inhibition of S. aureus RN4220, primary screen, OD600; 16 h; inhibition, % (no concentration beside the values); actives 0.33% (n = 330,000); AID 1259311, 2017;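 active means z-score of -3 or lower and OD600 up to 0.18 on both plates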;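 further: plate controls were untreated cells for no effect and reference antibiotic for full effect; stock transfer was 100 nL into about 80 µL; one replicate is shown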
# Mtb hypoxia rep growth = recorded beside Mtb hypoxia rep, whose call it bears; growth inhibition, %; measured here: M. tuberculosis growth (absorbance);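 0% = vehicle and 100% = reference antibiotic; read after six days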
# Starred values were filed as active, the others as inactive; ? = inconclusive; / = not tested or not shown.
SMILES,BJeLR lethal,Sa ugtP lethal,PrP UTR inh,Mtb hypoxia rep,Mtb hypoxia rep growth,Autofluor counter,RN4220 kill
CCn1c(SCc2ccccc2)nnc1C1CCCCC1,-7,0,-9,2,-4,2162,2.3
O=C1NCCN1C(=O)N(c1ccccc1)c1ccccc1,-18,-1,8,-4,0,22362*,-1.2
COc1ccccc1NC(=O)CSc1nnc(-c2ccco2)o1,0,-5,-18,/,/,2991,-0.2
O=C(Nc1ccccc1N1CCCCC1)c1cccc(Cl)c1,7,30,-10,17,2,4676,-4.5
Cn1c(=O)c2cc(S(=O)(=O)NC(C(=O)Nc3cccc(F)c3)c3ccccc3)ccc2n(C)c1=O (configuration not stated),-3,5,-5,5,6,5214,3.5
COC(=O)Nc1nc2ccc(C(=O)c3cccs3)cc2[nH]1,38,/,22,/,/,5078,/
CC(OC(=O)c1ccc(OCC2CCCO2)cc1)C(=O)N(C)Cc1ccccc1 (configuration not stated),-2,7,-14,1,0,6184,5.1
CNCCCNC(=O)c1ccc(/C=N/O)nc1,-3,/,-11,/,/,4271,/
CCN(Cc1ccncc1)Cc1ccc(Br)cc1,4,18,-11,0,-5,3913,7.3
O=C(Cn1cnc2c(nnn2Cc2ccccc2)c1=O)Nc1ccc2c(c1)OCCO2,-4,-2,-21,7,2,5524,-0.5
CCn1cc(C(=O)NCCc2ccccc2)c(=O)c2cc(F)c(N3CCN(C)CC3)cc21,-1,5,-1,/,/,3206,10
Cc1ccc([N+](=O)[O-])cc1NC1CC(O)C(CO)O1 (configuration not stated),5,0,-15,9,6,7462,4.5

# Entries shown so far with fluorine:
SMILES,BJeLR lethal,Sa ugtP lethal,PrP UTR inh,Mtb hypoxia rep,Mtb hypoxia rep growth,Autofluor counter,RN4220 kill
Cn1c(=O)c2cc(S(=O)(=O)NC(C(=O)Nc3cccc(F)c3)c3ccccc3)ccc2n(C)c1=O (configuration not stated),-3,5,-5,5,6,5214,3.5
CCn1cc(C(=O)NCCc2ccccc2)c(=O)c2cc(F)c(N3CCN(C)CC3)cc21,-1,5,-1,/,/,3206,10

# (continued)
SMILES,BJeLR lethal,Sa ugtP lethal,PrP UTR inh,Mtb hypoxia rep,Mtb hypoxia rep growth,Autofluor counter,RN4220 kill
Cc1ccc(NC(=O)C(C)OC(=O)c2n[nH]c3ccccc23)cc1 (configuration not stated),7,7,-36,12,-6,?,4.3
O=C(CN1CCN(c2ccc([N+](=O)[O-])cc2)CC1)Nc1nccs1,14,2,-30,9,1,8259,2.3
CC(NC(=O)c1ccc(CS(C)(=O)=O)cc1)C1CC2CCC1C2 (configuration not stated),1,6,-22,-3,2,4175,4.8
COc1ccc(NC(=S)N/N=C/c2ccc(F)c(F)c2)cc1,11,/,34,/,/,4732,/
CC(C)(C)N(Cc1ccccc1)C(=O)COC(=O)c1ccc([N+](=O)[O-])o1,/,-1,-20,1,10,4135,13
CN(C)CC1CCCCC1OC(=O)/C=C/c1ccccc1 (configuration not stated),5,3,-14,12,1,/,3.8
CCN(CC)C(=O)N(CC)Cc1ccccc1,2,4,-16,16,11,2637,4.3
O=C(c1ccncc1)N1CCN(S(=O)(=O)c2cccc([N+](=O)[O-])c2)CC1,-2,1,-19,-5,9,5216,1.9
CC(=O)N1c2ccc(S(=O)(=O)NCCC(=O)N3CCCC(C)C3)cc2CC1C (configuration not stated),11,3,-9,-1,1,5535,6.2
COc1ccccc1NC(=O)COc1ccc(/C=N/n2cnnc2)cc1OC,0,/,-21,/,/,3986,/
Cc1cc2nc(SCCOC(=O)Nc3ccc(Cl)cc3)nc(C)c2cc1C,7,-17,-10,11,-1,2412,-1.9
COc1cc(C2/C(=C(\O)c3ccc4c(c3)CC(C)O4)C(=O)C(=O)N2CCCn2ccnc2)ccc1O (configuration not stated),6,3,-14,/,/,2352,3.3
C=CCn1c(SCc2ccc(C(=O)O)cc2)nc2sc(C)c(C)c2c1=O,-14,12,-27,8,14,4150,34
Nc1ccc2nc(-c3ccccc3)sc2c1,2,-5,49,-88,-13,3383,6.6
COc1ccccc1C(c1nnnn1Cc1ccccc1)N1CCN(C2CCCC2)CC1 (configuration not stated),1,0,-5,12,6,3759,-3.0
COc1cc(-c2n[nH]c(=S)n2N=Cc2cccn2C)cc(OC)c1OC,/,-3,/,2,7,/,1.6
CCN(CC)S(=O)(=O)c1cccc(NC(=O)c2ccc(S(=O)(=O)N3CCCC3)cc2)c1,/,-4,-10,-3,11,3770,-0.3
C/C=C/C(=O)N1CC2(CC(c3cccc(NC(=O)COc4ccc(Cl)cc4)c3)=NO2)C[C@@H]1C(N)=O (some centres not stated),12,/,-20,/,/,4331,/
CCOC(=O)C1=NN(c2ccc(Cl)cc2)C(=O)C1,-1,-3,-75,-5,0,3576,3.8
COc1ccccc1Nc1cc(C(=O)NCCCN2CCOCC2)c2ccccc2n1,-2,-5,-27,-10,-15,6103,5.5
O=c1cc(C(F)(F)F)nc(-c2ccccc2OC(F)(F)F)[nH]1,-9,2,-39,5,-6,4001,8.1
COc1ccc(OC)c(NC(=O)C(C)SCc2nc3sc(C)c(C)c3c(=O)[nH]2)c1 (configuration not stated),/,-7,/,5,2,4595,1.7
O=C(NNC(=O)c1ccccc1OCc1ccc(F)cc1)c1ccncc1,6,-4,-2,-3,13,?,-0.3
O=C(CSc1nnnn1C1CCCCC1)NCc1cccc(C(=O)O)c1,1,8,-7,/,/,3964,0.0
COc1cc(C(=O)NCCN2C(=O)S/C(=C\c3cccs3)C2=O)cc(OC)c1OC,-9,11,-19,3,17,4236,-0.1
Cc1nc(C)c(-c2ccnc(N=CNO)n2)s1,/,7,/,2,7,/,1.1
CCOC(=O)c1c(C)oc2cc(Br)c(OC(=O)N3CCOCC3)cc12,6,1,-6,6,9,3262,10.0
CCC(C)NC(=O)C(Cc1ccccc1)NS(=O)(=O)c1cccc2nsnc12 (configuration not stated),3,3,-22,19,6,3562,1.3
CCOCCc1nnc(N)s1,-4,10,-23,16,8,10992,5.0
O=C(CCNC(=O)c1ccc([N+](=O)[O-])cc1)NCc1ccccc1,/,8,-16,11,0,5880,2.2
COCCN(C(=O)COC(=O)C1CCC(C(C)(C)C)CC1)c1c(N)n(Cc2ccccc2)c(=O)[nH]c1=O (configuration not stated),1,4,0,4,7,6006,13
Cc1cc(Oc2ccc(C)c(Cl)c2)nc(SCC(=O)c2ccccc2)n1,-2,/,-6,/,/,2462,/
Cc1ccc(C(=O)Nc2ccc(C(=O)NN=Cc3c[nH]c4ccccc34)cc2)cc1,/,2,/,-7,7,/,-4.2
COc1ccccc1/C=C(\C#N)C(=O)c1cccn1C,-3,7,-6,17,0,3088,1.0
Cc1cc(=O)oc2cc(NC(=S)NCc3ccccn3)ccc12,-3,10,-24,6,7,4274,3.6
CCCc1ccc(C#N)c(SC2CC(=O)N(c3ccc(OC)cc3)C2=O)n1 (configuration not stated),1,-2,-18,0,1,3447,9.4
O=C(NCCCN1CCOCC1)C(=O)NCc1ccccc1,0,9,-12,-8,-4,4698,6.4
Cc1cc(N=Cc2c(O)ccc3ccccc23)no1,-3,8,-17,7,8,10970,7.7
CCCn1nc(C(=O)NC2CC2)c2ccccc2c1=O,/,-1,-23,1,7,?,0.3
COc1ccc2[nH]c3c(c2c1)CCN1C(=O)C(CC(=O)NCCN2CCOCC2)C[C@H](C(=O)N(C(C)C)C(C)C)[C@@]31C (some centres not stated),/,6,-17,2,6,2936,-0.5
c1ccc(CNn2c(N3CCOCC3)nc3ccccc32)cc1,/,-10,-21,0,8,2345,-12
c1ccc(CNc2ccc(N3CCOCC3)cc2)cc1,/,1,-77,-1,1,3344,6.0
O=C(NCCCN1CCCC1)Nc1ccccc1[N+](=O)[O-],-11,13,-27,15,6,3718,0.0
O=C(CSc1nnc(-c2ccco2)n1Cc1ccco1)NCc1ccccc1,11,10,-3,/,/,2279,6.8
CC(=O)N1c2ccc(S(=O)(=O)NCC3CCC(C(=O)Nc4cccc(C)n4)CC3)cc2CC1C (configuration not stated),2,2,-11,4,5,5241,3.0
COC(C[C@H]1O[C@H]1[C@H](O)COCc1ccccc1)OC,3,/,4,/,/,3656,/
CC(C)(C)n1nnnc1C(c1ccncc1)N1CCN(C2CCCCC2)CC1 (configuration not stated),3,0,-3,9,11,11582,2.4
COc1ccc(NC(=O)Nc2ccccc2C(=O)N2CCCC2)cc1,8,3,-6,/,/,2790,3.3
O=C1Nc2ccccc2O/C1=C\c1ccccc1Br,5,-5,-14,4,-7,3770,3.1
COc1cccc(NC(=O)N2CCCC2C(=O)NCc2ccco2)c1 (configuration not stated),-12,0,-14,3,-2,4117,1.3
CC(=O)Nc1ccc(S(=O)(=O)NCCC(=O)NNC(=O)c2ccncc2)cc1,-1,7,-10,1,8,6074,0.2
CC(C)Cc1csc(NC(=O)c2ccc(F)cc2)c1C(=O)O,-9,30,-3,-9,-2,2440,47
CC(=O)Nc1ccc(C(=O)NN=Cc2ccc(F)cc2)cc1,/,11,/,9,6,/,2.7
CC(=O)c1ccc(N2CCN(C(=O)c3ccc(S(=O)(=O)NCc4ccco4)cc3)CC2)cc1,/,3,-8,3,13,3800,4.1
COc1ccc(S(=O)(=O)N2CCOC2CNC(=O)C(=O)NCc2ccncc2)cc1C (configuration not stated),-1,0,-11,-2,-2,5558,0.2
COC(=O)c1ccc(CN(c2ccccn2)S(=O)(=O)c2ccccc2)cc1,-3,5,-2,-1,3,6702,4.6
CCOc1ccc(NC(=O)Cc2ccc(S(=O)(=O)N3CCOCC3)s2)cc1OCC,4,5,-4,18,3,?,-1.7
CCN(CC)CC(C)CNC(=O)CN1C(=O)CSc2ccc(S(=O)(=O)N3CCOCC3)cc21 (configuration not stated),9,0,6,-17,-6,2198,0.6
Cc1cccc(S(=O)(=O)c2c(N)n(/N=C/c3ccccc3)c3nc4ccccc4nc23)c1,9,/,-1,/,/,16348*,/
CCn1ncc(-c2csc(N)n2)c1C,-6,2,25,11,-1,4258,2.5

# Sorted by number of heavy atoms (rising): four of the compounds above
SMILES,BJeLR lethal,Sa ugtP lethal,PrP UTR inh,Mtb hypoxia rep,Mtb hypoxia rep growth,Autofluor counter,RN4220 kill
O=C1Nc2ccccc2O/C1=C\c1ccccc1Br,5,-5,-14,4,-7,3770,3.1
CC(C)Cc1csc(NC(=O)c2ccc(F)cc2)c1C(=O)O,-9,30,-3,-9,-2,2440,47
COc1cccc(NC(=O)N2CCCC2C(=O)NCc2ccco2)c1 (configuration not stated),-12,0,-14,3,-2,4117,1.3
COc1ccc(S(=O)(=O)N2CCOC2CNC(=O)C(=O)NCc2ccncc2)cc1C (configuration not stated),-1,0,-11,-2,-2,5558,0.2

# Next section.
SMILES,BJeLR lethal,Sa ugtP lethal,PrP UTR inh,Mtb hypoxia rep,Mtb hypoxia rep growth,Autofluor counter,RN4220 kill
CCC(C)NC(=O)CNC(=S)N(Cc1ccccc1F)C1CCCCC1 (configuration not stated),-2,8,-15,-3,13,4293,5.7
CCC(C)N(C(=O)CSc1nncn1C)C1CCS(=O)(=O)C1 (configuration not stated),/,1,-15,9,-2,3550,-0.5
CCOc1ccc(-n2cccc2C=O)cc1,-4,15,-43,12,7,3082,0.8
COc1ccc(S(=O)(=O)N2CCC(C(=O)NCC3CCCO3)CC2)cc1C (configuration not stated),-1,0,-23,12,6,9332,2.9
CC(=O)c1cccc(NS(=O)(=O)c2ccc(-c3cc(C)no3)s2)c1,12,-1,-2,6,2,5812,1.0
COc1ccc2ccccc2c1-c1sc(Nc2ccccc2)n[n+]1-c1ccc(F)cc1,15,/,-8,/,/,3807,/
Cc1ccc(-n2c(Cc3ccccc3)nnc2SCC(=O)NNC(=O)Cc2ccccc2)cc1,7,3,12,-8,-11,16282*,-1.9
CCOC(=O)N1N=C(c2ccc(C)cc2)CC1(O)C(F)(F)F (configuration not stated),-6,3,-67,15,9,10462,5.8
NC(=O)CN1CCN(c2cccc(Cl)c2)CC1,-4,-1,-15,-1,4,3583,1.1
Cc1cc(OCCCCOc2ccc(C#N)cc2)ccc1[N+](=O)[O-],4,-2,-31,7,9,3725,6.0
O=C(NCc1ccco1)/C(=C\c1cccs1)NC(=O)c1ccccc1,6,8,-7,14,8,4510,8.4

# A second format for part of the listing above.
Structure	BJeLR lethal	Sa ugtP lethal	PrP UTR inh	Mtb hypoxia rep	Mtb hypoxia rep growth	Autofluor counter	RN4220 kill
COc1ccc2ccccc2c1-c1sc(Nc2ccccc2)n[n+]1-c1ccc(F)cc1	15	/	-8	/	/	3807	/
Cc1ccc(-n2c(Cc3ccccc3)nnc2SCC(=O)NNC(=O)Cc2ccccc2)cc1	7	3	12	-8	-11	16282*	-1.9
